PrP 5UTR inh: inhibition of PrP 5' UTR reporter expression; inhibition, % (concentration not given with the values); 340,000 compounds, 0.35% hits; cell-based PrP 5' UTR mRNA reporter, plate reader; AID 488862;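 active = every replicate at 50% or more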;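 also: 0 = median of the neutral control wells; tested in H4 reporter cells; numbers are from one replicate; inactives centre near -14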
RN4220 kill: kills Staphylococcus aureus RN4220 | S. aureus RN4220 growth, OD600, 16 h | inhibition, % (concentration not given with the values) | 330,000 compounds, 0.33% hits | AID 1259311;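 active = z-score of -3 or lower and OD600 up to 0.18 on both plates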;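 also: plate controls were untreated cells for no effect and reference antibiotic for full effect; stock transfer was 100 nL into about 80 µL; one replicate is shown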
ugtP null kill: compounds lethal to S. aureus RN4220 ugtP deletion mutant | OD600 growth, 16 h; some inactives read as strong as hits | growth inhibition, % (concentration not given with the values) | 330,000 compounds, 0.54% hits;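 active = z-score under -3 and OD600 up to 0.15 on both plates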;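 also: plate controls were untreated wells for no effect and antibiotic for full effect; wells of about 80 µL received 100 nL stock; the first replicate is given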
Bead autofluor: counter-screen for toxin protease inhibitors: compound fluorescence | fluorescence intensity (concentration not given with the values) | 360,000 compounds, 3.1% hits | compound autofluorescence counterscreen, microsphere flow cytometry; stronger effect = higher value | AID 624483;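 active = at least 3 SD above the mean of all compounds, about 16000 in these data; inconclusive = too few beads counted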;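 also: 100 nL of 1 mM stock went into each well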
Mtb hypoxia rep: inhibitors of hypoxia-regulated fluorescent reporter in Mycobacterium tuberculosis; fluorescence inhibition, % (test concentration not listed); 300,000 compounds, 0.1% hits; M. tuberculosis hypoxia-regulated fluorescent reporter, fluorescence;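 active = 35 to 45% if threefold the growth effect, above 45% if 1.5-fold the growth effect; inactive = the rest, general growth blockers included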;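 also: wells of about 50 µL received 100 nL stock; 0% = vehicle wells and 100% = reference inhibitor wells; whole bacteria with a GFP reporter of the hypoxia response; strong numbers were not always called active; many hits fall short of the cut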
BJeLR lethal: kills HRASV12-expressing BJeLR cells. BJeLR (HRASV12) viability, CellTiter-Glo ATP luminescence, 48 h; reference of the scale not given here. inhibition, % (no concentration beside the values). 300,000 compounds, 0.17% hits;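 active = replicate mean above 50%; inconclusive = above 50% but judged a plate artefact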;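 also: 50 nL library stock added to about 25 µL; numbers are from one replicate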
Mtb hypoxia rep growth: also measured in Mtb hypoxia rep; calls as there; growth inhibition, %; measured here: M. tuberculosis growth (absorbance);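 0% = vehicle and 100% = reference antibiotic; read after six days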
* marks the source's active call; other numbers are inactive results; ? = inconclusive; . = no result given.

SMILES	PrP 5UTR inh	RN4220 kill	ugtP null kill	Bead autofluor	Mtb hypoxia rep	Mtb hypoxia rep growth	BJeLR lethal
O=S1(=O)CCC(N=Nc2c(O)n(Cc3ccccc3)c3ccccc23)C1 (configuration not stated)	-6.2	1.8	13.5	4333	0.7	2.5	7.8
CC(NC(=O)CSC(=S)N(C)C)C12CC3CC(CC(C3)C1)C2 (configuration not stated)	-15.9	5.7	-4.5	2631	1.3	4.8	.
COc1ccc(S(=O)(=O)Nc2ccccc2C(=O)NCc2ccco2)cc1	-8.0	0.3	-3.6	4460	-0.4	1.7	-0.7
CCOC(=O)N1CCN(Cc2nc3cc(NC(=O)c4ccco4)ccc3n2C)CC1	-10.3	2.2	10.3	5628	10.9	-5.6	0.2
COc1ccc(OC)c(Nc2ncnc3c2cnn3-c2cccc(C)c2)c1	-25.9	-2.6	0.5	4201	-1.2	2.2	14.2
CC1=C(C(=O)OCCOc2ccccc2)C(c2coc3ccccc3c2=O)C2=C(CCCC2=O)N1 (configuration not stated)	-7.2	9.4	6.8	3405	10.3	6.3	0.0
CCCN(CC(=O)Nc1ccccc1C)C(=O)/C=C/c1ccc(S(=O)(=O)N2CCCCCC2)cc1	-3.9	1.8	5.0	5653	-0.1	7.9	0.4
CN(c1ccccc1)S(=O)(=O)c1ccc(NC(=O)C2CCCCC2C(=O)O)cc1 (configuration not stated)	-19.8	-1.0	-0.8	2890	.	.	-6.0
O=[N+]([O-])c1ccc(-n2cccc2C=NNc2nc(N3CCCCC3)nc(N3CCCCC3)n2)cc1	.	5.2	9.4	.	3.4	-1.0	.
COc1ccc(-c2nc3c4ccccc4[nH]c(=O)n3n2)cc1	-60.9	5.0	-7.7	5760	5.2	14.6	2.7
COc1ccccc1N1CCN(C(=O)Cn2nc(C(F)(F)F)c3c2CCC3)CC1	-10.8	4.5	1.2	2531	6.3	7.5	12.0
CC(=O)N(Cc1cccs1)C1CCOC(C)(C)C1 (configuration not stated)	-3.4	0.1	-4.2	4807	.	.	-2.7
COc1cccc(C(=O)/C=C/Nc2ccc(S(=O)(=O)Nc3cc(OC)nc(OC)n3)cc2)c1	-23.5	-5.3	6.8	3788	-3.2	0.6	4.8
COc1ccc(N2CCN(C(CNC(=O)C(=O)NC3CCCC3)c3ccco3)CC2)cc1 (configuration not stated)	-19.6	-0.2	3.8	5658	-6.5	2.4	-2.4
CN1C(=O)/C(=C/c2cccc([N+](=O)[O-])c2)C(=O)N1c1ccccc1	-14.8	0.6	2.7	3030	-0.1	-3.9	-8.5
Cc1noc(C)c1COc1ccc(C(=O)N2CCCC(C(N)=O)C2)cc1 (configuration not stated)	-0.3	2.2	0.4	6246	0.3	-2.4	-0.1
COc1ccc(-c2cc(C(=O)NCCCN3CCCC3=O)c3ccccc3n2)cc1OC	-56.8	-0.3	-0.6	2978	10.9	4.8	.
CC(Nc1ccccc1)c1cccnc1 (configuration not stated)	-7.8	2.9	11.5	4052	5.6	6.8	0.6
CCOc1ccc(S(=O)(=O)/N=C(/Nc2ccc(C(C)=O)cc2)c2ccccc2)cc1	-6.2	2.6	-2.7	3724	2.3	6.1	.
CN(C)C(=O)NC(Nc1ccc(Cl)cc1Cl)C(Cl)(Cl)Cl (configuration not stated)	-28.6	2.8	-31.0	11234	2.7	8.4	-6.9
CC(C)[C@H](NC(=O)NC1CCCc2ccccc21)C(=O)O (some centres not stated)	-21.2	8.2	4.1	10342	7.8	8.8	3.4
Nc1nc(SCc2ccc(Cl)cc2)ns1	-11.2	-22.2	17.0	3322	6.7	6.6	-1.0
Clc1ccccc1CN(Cc1ccccc1)c1ncnc2nc[nH]c12	-15.0	6.0	15.1	4627	8.0	3.4	4.7
CN(C(=O)COC(=O)c1c2c(nc3ccccc13)CCCC2)c1c(N)n(Cc2ccccc2)c(=O)[nH]c1=O	-6.4	-0.5	0.7	4965	5.5	14.2	0.9
COC(=O)c1ccc(COC(=O)C2CCN(S(=O)(=O)c3ccccc3C(=O)OC)CC2)cc1	-7.3	-1.3	0.8	?	-1.6	-3.1	.
COc1ccc(C(CC(=O)N2CCCCC2)C(C)C)cc1 (configuration not stated)	-13.1	5.7	8.0	4724	15.4	4.0	-9.7
Cc1cc(=O)oc2cc(OCC(=O)OCC(=O)N(C)C3CCS(=O)(=O)C3)ccc12 (configuration not stated)	-6.6	1.8	7.3	5038	-9.3	2.5	5.6
COc1ccc(NC(=O)N2CCC(n3nnc4cc(C)ccc43)CC2)cc1	-31.4	4.8	16.8	10319	6.0	4.8	-5.4
CC(C)c1ccc(Nc2cnn(C34CC5CC(CC(CC(=O)O)(C5)C3)C4)c(=O)c2Cl)cc1	-22.3	10.1	21.4	11262	4.4	-1.1	-8.6
O=C(O)CC1(CC(=O)NCc2csc(-c3cccs3)n2)CCCCC1	-14.6	3.7	10.0	4369	-8.0	-6.4	2.8

Given with bars between the fields: two of the compounds above.
Compound | PrP 5UTR inh | RN4220 kill | ugtP null kill | Bead autofluor | Mtb hypoxia rep | Mtb hypoxia rep growth | BJeLR lethal
Cc1cc(=O)oc2cc(OCC(=O)OCC(=O)N(C)C3CCS(=O)(=O)C3)ccc12 (configuration not stated) | -6.6 | 1.8 | 7.3 | 5038 | -9.3 | 2.5 | 5.6
CC(C)[C@H](NC(=O)NC1CCCc2ccccc21)C(=O)O (some centres not stated) | -21.2 | 8.2 | 4.1 | 10342 | 7.8 | 8.8 | 3.4

The listing continues.
SMILES	PrP 5UTR inh	RN4220 kill	ugtP null kill	Bead autofluor	Mtb hypoxia rep	Mtb hypoxia rep growth	BJeLR lethal
Cc1nnsc1S(=O)c1ccc(Cl)cc1 (configuration not stated)	11.2	5.0	14.3	3084	23.9	-20.3	-7.7
CCc1cccc2c(C(=S)N3CCCC3)c[nH]c12	-24.4	2.6	-5.1	3333	2.8	7.3	17.9
Cc1ccc(C(=O)Nc2cc(C)c(OCC(=O)N3CCOCC3)c(C)c2)cc1	-44.4	2.5	12.6	2381	.	.	4.3
CCCCc1ccc(NC(=O)CN2NS(=O)(=O)c3ccccc3C2=O)cc1	2.3	5.6	3.3	9244	-2.6	1.9	4.0
CC(C)Cn1c(CCNC(=O)c2ccco2)nc2ccccc21	-22.2	0.8	3.3	5523	-2.3	4.8	1.4
Cc1cc(C(=O)Nc2nnc(C3CCCCC3)s2)no1	-9.1	-10.9	-17.3	9531	-6.9	8.7	6.9
COc1ccc(CN(CCC(c2ccccc2)c2ccco2)C(=O)c2ccco2)cc1 (configuration not stated)	-27.7	-0.9	63.7	2227	12.2	-1.9	5.4
Cc1cccc(C(=O)NC(=S)Nc2ccc(S(=O)(=O)N(C)c3ccccc3)cc2)c1	-6.8	5.2	-0.5	4595	.	.	3.5
Cc1ccnn1CCC(=O)N1CCCC(CCC(=O)N2CCN(c3ccccn3)CC2)C1 (configuration not stated)	5.7	4.4	-6.3	4458	10.3	2.4	7.4
Cc1ccc(C)c(OCc2ccc(C(=O)N3N=C(C(F)F)CC3(O)C(F)F)o2)c1 (configuration not stated)	-28.9	7.7	-17.6	2507	9.1	10.9	3.0
CCOC(=O)N1CCN(C(=O)CCn2c(=S)[nH]c3ccsc3c2=O)CC1	-18.3	4.5	3.5	4040	10.3	6.8	-6.2
Cc1ccc(CNC(=O)COC(=O)c2ccc(S(=O)(=O)N3CCCCCC3)cc2)cc1	-13.3	6.3	11.3	4957	8.4	-3.9	.
CCc1nnc(SCc2ccc(OC(C)C)cc2)n1N	8.6	-0.1	0.9	2620	.	.	-5.9
COc1ccccc1C(=O)Nc1ccnn1C1CCN(C(=O)C2CCOC2)CC1 (configuration not stated)	-11.0	-0.5	2.5	5634	-2.2	-7.8	-5.8
COc1cccc(CSc2nc3cc4c(cc3cc2C)OCCO4)c1	-31.0	-11.4	39.1	2302	-1.6	3.0	-8.3

Given in markdown: entries from further up.
| SMILES | PrP 5UTR inh | RN4220 kill | ugtP null kill | Bead autofluor | Mtb hypoxia rep | Mtb hypoxia rep growth | BJeLR lethal |
| --- | --- | --- | --- | --- | --- | --- | --- |
| CCc1cccc2c(C(=S)N3CCCC3)c[nH]c12 | -24.4 | 2.6 | -5.1 | 3333 | 2.8 | 7.3 | 17.9 |
| COc1ccc(-c2nc3c4ccccc4[nH]c(=O)n3n2)cc1 | -60.9 | 5.0 | -7.7 | 5760 | 5.2 | 14.6 | 2.7 |
| COc1ccc(S(=O)(=O)Nc2ccccc2C(=O)NCc2ccco2)cc1 | -8.0 | 0.3 | -3.6 | 4460 | -0.4 | 1.7 | -0.7 |
| CN1C(=O)/C(=C/c2cccc([N+](=O)[O-])c2)C(=O)N1c1ccccc1 | -14.8 | 0.6 | 2.7 | 3030 | -0.1 | -3.9 | -8.5 |
| CC1=C(C(=O)OCCOc2ccccc2)C(c2coc3ccccc3c2=O)C2=C(CCCC2=O)N1 (configuration not stated) | -7.2 | 9.4 | 6.8 | 3405 | 10.3 | 6.3 | 0.0 |

The listing picks up, starting two compounds before the break.
SMILES	PrP 5UTR inh	RN4220 kill	ugtP null kill	Bead autofluor	Mtb hypoxia rep	Mtb hypoxia rep growth	BJeLR lethal
COc1ccccc1C(=O)Nc1ccnn1C1CCN(C(=O)C2CCOC2)CC1 (configuration not stated)	-11.0	-0.5	2.5	5634	-2.2	-7.8	-5.8
COc1cccc(CSc2nc3cc4c(cc3cc2C)OCCO4)c1	-31.0	-11.4	39.1	2302	-1.6	3.0	-8.3
COc1ccc(OC)c(NC(=O)COC(=O)CNC(=O)c2ccc(OC)c(OC)c2)c1	-19.3	1.8	-2.2	8493	12.7	6.0	-3.2
CCOC(=O)c1cc(NC(=O)CSc2nnc(CN3CCOCC3)n2C)ccc1Cl	-5.1	5.7	-9.1	3683	-75.8	-8.6	3.4
CCC(=O)c1c(NC(CC)CO)cc(C)oc1=O (configuration not stated)	-49.5	-0.4	1.7	3204	3.3	-2.6	-15.4
Cc1ccc(N=Nc2c(N)[nH]n3c(=O)c4c(nc23)CCCC4)cc1	.	6.1	12.6	.	.	.	3.2
CCC(C)NC(=O)C1c2cc(OC)c(OC)cc2C(=O)N(C)C1c1cccs1 (configuration not stated)	-3.7	1.4	3.8	8988	6.4	7.8	1.7
Cc1ccc(C(=O)c2ccc([N+](=O)[O-])cc2)cc1	-22.0	18.3	-1.2	9091	5.2	11.9	-2.0
Cn1c2c(c(=O)n(C)c1=O)C(C(F)(F)F)(C(F)(F)F)N=C(C1CCCCC1)N2	14.1	2.5	-3.9	2148	-4.2	5.6	-1.0
CN(C)CCCNc1nc(N)c([N+](=O)[O-])c(NCc2ccccc2)n1	-14.9	-0.9	9.0	3184	3.9	-2.5	3.3
O=C(CSCc1ccc(Cl)cc1)N/N=C/c1ccc(OCC(=O)Nc2ccccc2)cc1	-4.3	.	.	3192	.	.	-3.3
COc1ccccc1NC(=S)NCCSc1ccc(C)cc1	-10.2	.	.	2627	.	.	-5.8
CCN(CCNC(=O)C1CCC(=O)N1Cc1ccc(C)cc1)c1ccccc1 (configuration not stated)	-40.5	1.9	7.1	4545	-10.5	2.6	-0.1
Cc1c(C(=O)N2CCOCC2)sc(NC(=O)c2ccc([N+](=O)[O-])cc2)c1C#N	-14.1	5.3	-1.1	3497	13.9	-1.3	4.2
O=C(NCc1c(F)cccc1F)c1cc(COc2c(F)cccc2F)on1	1.3	2.9	3.3	2144	12.7	1.3	-16.5
CCc1nc(SCC(=O)N2CCN(C(=O)c3ccco3)CC2)c2c3c(sc2n1)CCCC3	-15.2	-0.2	-3.6	3090	.	.	3.0
O=C(O)CC1Sc2nnc(COc3ccc(Cl)cc3)n2N=C1c1ccccc1 (configuration not stated)	-12.8	2.6	4.7	5922	-2.2	6.6	-4.6
CC(C)(C)c1cc(OC(=O)C2CCCC2)ccc1O	-31.3	-6.8	19.1	3422	12.1	2.3	-10.5
COC(=O)C1(Cc2cc(-c3cccc(Br)c3)no2)CCN(C(=O)OC(C)(C)C)CC1	-23.4	16.0	16.2	4126	3.2	-0.2	5.4
COCCNCCCOc1ccc(Cl)cc1Br	-16.7	4.7	16.1	2530	7.6	13.3	-2.3
CCn1nnnc1SCC(=O)c1ccc(NC(C)=O)cc1	4.2	2.2	5.6	2399	.	.	-1.4
